# YjeE inh: qHTS Assay for Inhibitors of YjeE; tRNA threonylcarbamoyladenosine biosynthesis protein TsaE (Escherichia coli (strain …; purified YjeE, fluorescence polarisation of a bound ADP probe; Potency, µM; hit rate 0.05% among 71,000; AID 605, 2007; active = well fitted falling curve; inconclusive = weaker or top-dose-only fall, or a rising curve; inactive = flat or poorly fitted curve;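 also: top concentration of the series not given in the record; excess ADP was the control for the full effect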
#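 Fluorescence polarization of a BODIPY Texas Red–ADP probe (2 uM) bound to purified YjeE (10 uM) was read after 15 min room-temperature incubation with compounds. Loss of polarization marks inhibitors; ADP serves as titrated control.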
# PK Bst: Pyruvate Kinase | AID 361, 2006 | hit rate 1.2% among 51,000 | Potency, µM | partly purified Bacillus stearothermophilus pyruvate kinase, luminescence ATP production; ribose 5-phosphate activator present at AC10; in the data active means potency below about 11 µM; inconclusive means mostly about 12 µM to 25 µM; inactive means weaker than that;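 the screen sought inhibitors and activators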;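 also: potency is read from the fitted curve at half-maximal effect; scaled between full activation by ribose 5 phosphate and full inhibition by luteolin; about four in five hits inhibit and the cells do not say which; series up to 57 µM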
# The depositor's hits bear a star; i = inactive; · = not tested or not shown. Some of the compounds tested (hit frequency here may not be typical).
SMILES,YjeE inh,PK Bst
Cc1[nH]nc(N=CC2=C(O)CC(C)(C)CC2=O)c1-c1ccccc1,i,>11
Cc1occc1-c1nnc(SCC(=O)Nc2ccccc2)n1C(C)c1ccccc1 (stereo not drawn),i,>57
O=C(CSc1nc2ccccc2s1)NCCCN1CCOCC1,i,>57
CCOC(=O)C1CCN(c2c(NCc3ccc(C(=O)NCCC(C)C)cc3)c(=O)c2=O)CC1,i,>57
CCOC(=O)Nc1ccc2c(c1)N(C(=O)CN1CCN(C)CC1)c1ccccc1S2,i,>57
COCCn1c(=N)c(C(=O)NCCc2ccccc2)cc2c(=O)n3cccc(C)c3nc21,i,·
C=CCSc1nncn1/N=C/c1ccc(OC)cc1,i,i
Cn1c(NC(=O)c2ccccc2NC(=O)C(C)(C)C)nc2ccccc21,i,·
O=C(CCn1c(=O)oc2ccccc21)Nc1ccccc1,i,>57
COC(=O)c1ccc(-n2nnnc2SCc2nn[nH]n2)cc1,i,·
CCOC(=O)c1[nH]c(C)c(C(=O)N2CCOCC2)c1C,i,·
COc1ccc(Cc2nnc(NC(=O)C3CCCO3)s2)cc1 (stereo not drawn),i,>57
Cc1cccc(OCC(O)Cn2c(=N)n(CCN3CCOCC3)c3ccccc32)c1 (stereo not drawn),i,>57
CCOc1ccc(C(=O)Nc2ccc(NC(=O)c3ccco3)c(Cl)c2)cc1Br,i,>57
Cc1ccc(S(=O)(=O)N(CC(=O)O)Cc2ccccc2F)cc1,i,>57
CC1(C)Cc2c(sc3nc4n(c(=N)c23)CCC4)CO1,·,>26
CC(=O)NCCNc1cc(-c2ccccc2C)ncn1,i,·
Cc1ccc2cc(CN(CCCO)S(=O)(=O)c3cccc4nsnc34)c(=O)[nH]c2c1C,i,>57
CCOc1cc(NC(=O)C2CCCCC2)c(OCC)cc1NC(=O)c1ccco1,i,>57
COc1ccc(OC)c(C2N(c3ccc(Cl)cc3)C(=O)C3CCCN32)c1 (stereo not drawn),i,>57
O=C(CN(CCc1ccccc1)C(=O)Cn1nnc(-c2cccs2)n1)NCc1ccco1,i,>57
Cc1ccc(-n2ncc3c(=O)n(CC(=O)N4CCCc5ccccc54)cnc32)cc1C,i,·
COCCOC(=O)C1=C(C)NC(SCC(=O)NC(C)(C)C)=C(C#N)C1c1ccco1 (stereo not drawn),·,>26
CC1(CCC(=O)OC2CCCCC2)OCCO1,i,·
O=C(O)c1cc(O)c2c(c1)C(=O)c1cccc(O)c1C2=O,i,>26

# Not a retest: entries from further up.
SMILES,YjeE inh,PK Bst
COc1ccc(OC)c(C2N(c3ccc(Cl)cc3)C(=O)C3CCCN32)c1 (stereo not drawn),i,>57
O=C(CN(CCc1ccccc1)C(=O)Cn1nnc(-c2cccs2)n1)NCc1ccco1,i,>57
Cc1ccc(-n2ncc3c(=O)n(CC(=O)N4CCCc5ccccc54)cnc32)cc1C,i,·

# New compounds follow
SMILES,YjeE inh,PK Bst
O=C(O)CCCCCNC(=O)c1cccc(Br)c1,i,·
COc1ncc2ncc(=O)n(Cc3ccc(F)cc3)c2n1,i,·
O=C(c1cc(-c2cccc(O)c2)on1)N1CCc2ccccc2C1,i,·
O=[N+]([O-])c1cccc(C(F)(F)F)c1,i,·
O=C(COC(=O)c1ccncc1)NCc1ccccc1,i,>57
CC1(C)CC(=O)C(C(C2=C(O)CC(C)(C)CC2=O)c2cccnc2)C(=O)C1 (stereo not drawn),i,>57
Cc1ccc(NC(=O)CSc2nnc(Cc3cccn3C)n2-c2ccc(F)cc2)c(C)c1,i,·
O=C(O)CCSCC(=O)c1ccc2c(c1)OCCO2,i,>57
CCc1ccc(NC(=O)CSc2nnc(-c3ccccn3)n2C)cc1,i,>57
Cc1sc2ncnc(Sc3nnc4sc5ccccc5n34)c2c1C,i,>57
Cc1nnc(NC(=O)CSc2nc3c(c(=O)n2C)SC(C)C3)s1 (stereo not drawn),i,·
O=C(c1cccc(C(F)(F)F)c1)N1CCN(C2CCCCC2)CC1,i,>57
CCOc1ccc(N2C(=O)CC(N(O)c3ccccc3)C2=O)cc1 (stereo not drawn),i,>57
CCc1ccc(C2C(C#N)=C(N)SC(N)=C2C#N)cc1,i,·
O=C(O)C1CC=CCC1C(=O)NCc1ccccc1 (stereo not drawn),i,>57
CCC(=O)NCCN1CCN(C(=O)CC)CC1,i,>57
N#Cc1c(N2CCOCC2)nc(N2CCCCC2)c2c1CCN(C1CCCCC1)C2,·,>26
CCOC(=O)N1CCC(NC(=O)CS(=O)(=O)Cc2nc(-c3ccc(C)cc3)oc2C)CC1,i,·
COc1cccc(C2/C(=C(\O)c3ccc(OC)c(OC)c3)C(=O)C(=O)N2c2cc(C)on2)c1 (stereo not drawn),·,>26
C=CCNc1nc(NCCO)nc(N2CCCC2)n1,i,>57
CSc1nsc(SCC(=O)Nc2ccc3c(c2)OCCO3)n1,i,>57
COc1ccc(Cl)cc1CN1CCN(c2nc(C)cc(C)c2C#N)CC1,i,>57
CCCc1c(O)nc(SCc2ccccc2)[nH]c1=O,i,>57
Cc1cccc(NC(=O)CSC(N)=O)c1C,i,·
CC(=O)N1CCN=C1SCc1ccc(C)cc1,i,·
# The list goes on:
SMILES,YjeE inh,PK Bst
O=C(COc1cccc2cccnc12)Nc1nccs1,i,>57
Cn1c(=O)[nH]c(=O)c2c1nc(N1CCCCC1)n2CC(O)CN1CCCCC1 (stereo not drawn),i,>57
CCC(=O)N1CC2(C)CN(C(=O)CC)CC(C)(C1)C2,i,>57
CCN1C(=O)C2C(c3cccc(F)c3)NC(C)(C(=O)OC)C2C1=O (stereo not drawn),i,>57
Cc1ccc(C2CC(c3cccc(C)c3)n3nc(N)nc3N2)cc1 (stereo not drawn),i,·
Cc1ccccc1-c1nc(Cc2ccc(Cl)cc2)no1,i,>57
CCN(CC)S(=O)(=O)N1CCC(C(=O)NC(C)CCc2ccccc2)CC1 (stereo not drawn),i,>57
O=C(CCc1c[nH]c2ccccc12)NCC1CCCO1 (stereo not drawn),i,>57
CN(c1ccc(C(=O)NCc2ccccc2)cc1)S(C)(=O)=O,i,>57
Cc1ccc(-c2nn3c(C)nnc3c3ccccc23)cc1S(=O)(=O)NCc1ccco1,i,>57
O=C(O)CC[P+](c1ccccc1)(c1ccccc1)c1ccccc1,i,·
Cn1c(N)c(C(=O)COC(=O)C2(c3ccc(F)cc3)CCCC2)c(=O)n(C)c1=O,i,>57
O=S(=O)(c1ccc(Cl)s1)N1CCN(c2ncccn2)CC1,i,>57
Cc1nn(-c2ccccc2)c2sc(C(=O)N3CCc4ccccc4C3)cc12,i,>57
CC1(C)CC2CC(C)(CN2c2ncnc3ccccc23)C1 (stereo not drawn),i,>57
CN1CCN(CCCNc2nc3ccccc3c3nc(-c4ccccc4)nn23)CC1,i,10*
COc1ccc(C(=O)N/C(N)=N/c2nc3ccccc3o2)cc1,·,>26
CC(C)Cc1ccc(C#N)c(SCC(N)=O)n1,i,·
C[C@@H](CCc1ccc(O)cc1)NCCc1ccc(O)c(O)c1,i,·
COc1ccc2c(c1)c(=O)cc(C)n2CC(=O)NCc1ccco1,i,>57
CCOC(=O)c1c(N)sc2c1CCC(C)C2 (stereo not drawn),i,·
CCCS(=O)(=O)Nc1c(C(=O)O)[nH]c2ccccc12,i,>57
CC(=O)N1CCC2(CCCN(c3cccc(-c4ccccc4)c3)C2)CC1,i,·
O=S(=O)(Cc1ccccc1)NCc1cccnc1,i,>57
O=C(CS(=O)(=O)Cc1ccccc1)Nc1nc2ccccc2s1,i,>57

# Retrieved one by one from above:
SMILES,YjeE inh,PK Bst
CC(=O)N1CCC2(CCCN(c3cccc(-c4ccccc4)c3)C2)CC1,i,·
O=S(=O)(c1ccc(Cl)s1)N1CCN(c2ncccn2)CC1,i,>57
Cc1ccc(C2CC(c3cccc(C)c3)n3nc(N)nc3N2)cc1 (stereo not drawn),i,·
C[C@@H](CCc1ccc(O)cc1)NCCc1ccc(O)c(O)c1,i,·
CN(c1ccc(C(=O)NCc2ccccc2)cc1)S(C)(=O)=O,i,>57
CC(C)Cc1ccc(C#N)c(SCC(N)=O)n1,i,·

# (cont.)
SMILES,YjeE inh,PK Bst
COc1ccc(S(=O)(=O)N2CCCC(C(=O)NCc3ccncc3)C2)cc1 (stereo not drawn),i,>57
OCn1ncn(-c2ccccc2)c1=S,i,>57
CC(=O)N1CCc2cc(S(=O)(=O)NC(CC(C)C)C(=O)Nc3ccc4c(c3)OCCO4)ccc21 (stereo not drawn),i,>57
CCc1nc(-c2cc3ccc(C)cc3[nH]c2=O)no1,i,i
Cc1nc(CN2CCCCC2)c(O)c(=O)[nH]1,i,·
O=C(CCOc1ccccc1)NCc1ccccc1,i,>57
c1ccc(-n2nnnc2Oc2cccc3cccnc23)cc1,i,·
COc1cc(C)cc(OC)c1/C=C\C(=O)O,i,·
CC1Cc2ccccc2N1C(=O)COC(=O)C1=COCCO1 (stereo not drawn),i,>57
COc1ccc(CC(=O)OCc2cc3cccc(C)c3[nH]c2=O)cc1,i,>57
Cc1ccc(-n2nnnc2SCCNS(=O)(=O)c2ccccc2)cc1C,i,·
Cc1oc(C)c(C(=O)NCCCC(=O)O)c1C(=O)NCCCC(=O)O,i,>57
O=C(O)CP(=O)(c1ccccc1)c1ccccc1,i,·
COc1ccc(CCNC(=O)c2cnccn2)cc1,i,·
Cc1ccc(-c2cc3c(nn2)-c2ccccc2C3=O)cc1,i,·
Cc1ccsc1C1C2=C(CCCC2=O)Nc2ncnn21 (stereo not drawn),i,>57
O=C(Nc1nnc(CCc2ccccc2)s1)C1CCCO1 (stereo not drawn),i,>57
Cc1nn(Cc2ccc(Cl)c(Cl)c2)c(C)c1NC(=O)c1cc(CC(C)C)on1,i,·
O=c1c(O)c(-c2cccs2)oc2ccccc12,i,i
CC(=O)N1CCc2cc(S(=O)(=O)CCC(=O)O)ccc21,i,>57
Cn1nnc(NCc2cc(Br)ccc2OCc2cccs2)n1,i,>57
CCN(CC)CCN1C(=O)c2oc3ccccc3c(=O)c2C1c1ccc(C)cc1 (stereo not drawn),i,>57
COc1cc(NC2=CC(=O)CC(C)(C)C2)cc(OC)c1,i,·
CC(NCC1(N2CCOCC2)CCCCC1)C(=O)N1CCc2ccccc21 (stereo not drawn),i,>57
COc1ccc(-c2nnc3ccc(SCC(=O)N4CCCCCC4)nn23)cc1OC,i,·

# Exported as tab-separated lines: part of the list above.
smiles	YjeE inh	PK Bst
Cc1ccc(-n2nnnc2SCCNS(=O)(=O)c2ccccc2)cc1C	i	·
Cc1oc(C)c(C(=O)NCCCC(=O)O)c1C(=O)NCCCC(=O)O	i	>57
O=C(O)CP(=O)(c1ccccc1)c1ccccc1	i	·
COc1ccc(CCNC(=O)c2cnccn2)cc1	i	·
Cc1ccc(-c2cc3c(nn2)-c2ccccc2C3=O)cc1	i	·

# Further entries follow:
SMILES,YjeE inh,PK Bst
CCO/C(C)=C1\C(=O)N(CC)c2ccccc21,i,·
CC(=O)Nc1ccc(NC(=O)Cn2c(CC(=O)N3CCCC3)nc3ccccc32)cc1,i,>57
CC(=O)NC(C)C(=O)OCC(=O)Nc1ccc(Br)cc1 (stereo not drawn),i,·
Cc1cccc(NC(=O)CC2SC(=NC3CCCCC3)NC2=O)c1 (stereo not drawn),i,>57
CC(=O)N1C(c2ccccc2)CC(=O)OC1c1ccc2c(c1)OCO2 (stereo not drawn),i,>57
CCC(C)(C)NC(=O)CN(CC1CCCO1)C(=O)CCC(=O)Nc1nccs1 (stereo not drawn),i,>57
Cc1ccc(N(C(=O)Nc2ccccc2)C2=NCC(C)S2)cc1 (stereo not drawn),i,·
O=C(CCN1CCOCC1)Nc1ccc(F)cc1F,i,·
Cc1ccc(NC(=O)CC2SC3=NCCN3C2=O)cc1 (stereo not drawn),i,>57
CCCCCOC(=O)Cc1c(C)nc(-c2ccccc2)[nH]c1=O,·,>26
CC(C)(C)c1cc(Cc2ccccc2)[nH]n1,i,>57
O=C(Nn1cnc2ccccc2c1=O)c1ccc(F)cc1Cl,i,>57
COc1ccc(N2CCN(C(=O)c3ccc(S(=O)(=O)N4CCOCC4)cc3)CC2)cc1,i,>57
COc1ccc(N2CCN(Cc3cc(=O)oc4cc(-c5ccccc5)c(O)cc34)CC2)cc1,i,>57
CCOC(=O)C1CCN(C(=O)C2CC(=O)N(c3ccc(C)cc3)C2)CC1 (stereo not drawn),i,>57
O=C(Nc1ccc2c(c1)OCO2)N1CCOCC1,i,>57
CCOc1ccc2c(c1)cc(CN(C(=O)CC)C1CCCCC1)c1nnnn12,i,>57
CCOC(=O)C1CCN(C(=O)c2cc(OCC)c(OCC)c(OCC)c2)CC1,i,>57
CCOc1ccccc1N(CC(=O)NC1CCCC1)C(=O)CCCC(=O)Nc1ccccn1,i,>57
CCOCCCN(Cc1cc2cc(C)cc(C)c2[nH]c1=O)C(=O)N(CC)CC,i,>57
Cc1cc(N2CCC(C)CC2)nc2ccc(N3C(=O)CCC3=O)cc12,i,>57
COc1ccccc1CNC(=O)C1CCN(Cc2nc(-c3ccc(Cl)cc3)oc2C)CC1,i,>57
CCOC(=O)N1CCN(c2c(NCCN(C)Cc3ccccc3)c(=O)c2=O)CC1,i,·
CCNc1ncc2nc(-c3cc(F)cc(F)c3)c(=O)n(C3CC3)c2n1,i,·
Cc1cc(NS(=O)(=O)c2ccc(Br)s2)no1,i,>57
Cn1c(=O)c2c(nc(CN3CCN(c4ccccc4)CC3)n2Cc2c(F)cccc2Cl)n(C)c1=O,i,>57
COc1cccc(C(=O)N2CCN(C3CCC(c4ccccc4)CC3)CC2)c1OC (stereo not drawn),i,>57
O=C(OCCN1CCCCC1)c1cc2ccccc2o1,i,>57
C[C@@H](C(=O)O)c1cccc(C(=O)c2ccccc2)c1,i,·
C[C@@H](C(=O)NCc1ccccc1)[C@@H]1C[C@@]1(C)[C@@H](NC(=O)OCc1ccccc1)c1ccccc1,i,·
